Screening data deposited in PubChem BioAssay by National Center for Advancing Translational Sciences (NCATS).
Rango release inh: inhibition of RanGTP-driven Rango-importin beta dissociation; O95149+P62826; Biochemical FRET Rango-importin beta, RanGTP-induced dissociation; Potency, µM (highest dose often 46.1 µM), inactives show at the highest dose activity change, negative = inhibition; 340,000 compounds, 0.071% hits; AID 540253; active means falling FRET ratio curve, often poorly fitted, with flat reads before Ran was added; inconclusive means other falling curves, or compound fluorescence or quenching; inactive means flat or rising ratio curve;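 further: potency means the concentration at half of the fitted maximal effect; % of control where 0% means no effect; nearly all actives have a fitted effect of over 45% in size; -100% = wells without RanGTP and RCC1; the record marks most hits as doubtful in a second field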
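Rango (0.1 uM)–importin beta (0.25 uM) complex; RanGTP-RCC1 trigger; 45 min RT; CFP/YFP FRET read.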
GLA inh pH 4.5: inhibitors of human alpha-galactosidase A at pH 4.5; P06280; purified enzyme, 4-MU-alpha-Gal fluorescence, pH 4.5; activity change, negative = inhibition, % at 105 µM; 230,000 tested, under 10 active; inconclusive = small, poorly fitted or top-dose-only inhibition, or a rising curve; inactive = flat fitted curve, though single readings scatter; no compound was filed as active;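 further: 0% = full activity with enzyme and -100% = basal without enzyme; dose as in the result columns while the protocol names 77 µM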
Target sequence (P06280 whole entry, looked up): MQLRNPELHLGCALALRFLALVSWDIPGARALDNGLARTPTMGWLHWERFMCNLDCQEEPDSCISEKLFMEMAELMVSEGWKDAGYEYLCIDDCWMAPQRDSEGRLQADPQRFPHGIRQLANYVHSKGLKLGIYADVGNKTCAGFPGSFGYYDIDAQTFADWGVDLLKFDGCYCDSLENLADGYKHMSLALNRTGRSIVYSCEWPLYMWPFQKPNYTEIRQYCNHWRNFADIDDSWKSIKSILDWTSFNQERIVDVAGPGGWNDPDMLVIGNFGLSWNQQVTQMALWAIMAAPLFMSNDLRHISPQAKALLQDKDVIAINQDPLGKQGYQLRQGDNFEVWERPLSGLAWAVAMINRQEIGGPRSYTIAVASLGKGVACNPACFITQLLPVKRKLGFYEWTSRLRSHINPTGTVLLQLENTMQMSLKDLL
Rango-impB inh: Rango-importin beta binding inhibition. 340,000 compounds, 0.031% hits. Rango CFP/YFP FRET sensor + importin beta, 45 min. Potency, µM (top dose mostly 92.2 µM), for inactives: top-dose inhibition of complex formation. AID 540263; active = rising FRET ratio curve, often small or poorly fitted; inconclusive = mostly compound fluorescence or quenching in the first reads; inactive = flat curves in all reads;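 further: potency means the concentration at half of the fitted maximal effect; 0% = DMSO wells and 100% = buffer wells lacking importin beta; nearly all actives have a fitted effect of over 15% in size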
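Inhibition scored from the CFP 486 nm/YFP 530 nm FRET ratio 45 min after adding 0.125 microM importin beta to 50 nM Rango biosensor preincubated 5 min with compound (room temperature, PBS with DTT, Tween-20, BSA). No-importin wells as positive control.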
miR-21 FLuc: raises the signal of a miR-21 reporter; 340,000 tested, under 10 active; HeLa miR-21 FLuc reporter, luciferase, 48 h; Potency, µM (doses to about 38.3 µM), inactives show top-dose reporter change, positive = more light; active = well fitted rising curve with a large enough effect; inconclusive = small, poorly fitted or top-dose-only effect; inactive = no such curve, though single readings can be large or run the other way;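 further: % of control where 0% means no effect; miR-21 action dims this reporter so a rising signal means less miR-21 action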
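Using DMEM plus 10% FBS, HeLa miR-21-FLuc cells are incubated with test compounds (final up to about 40uM) for 48 hours; firefly luciferase signal is then imaged following reagent-mediated lysis.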
* marks the source's active call; other numbers are inactive results; ? = inconclusive; nt = no result given; & = joins results of further samples.

GLA inh pH 4.5 | Rango release inh | Rango-impB inh | miR-21 FLuc | SMILES
2 | 21% | 2.2% | 0% | CCc1ccc(C(=O)c2ccccc2C(=O)O)s1
4 | nt | nt | -7% | COC(=O)c1cccc(Cn2cc([N+](=O)[O-])cn2)c1
9 | 0% | 5.3% | -52% | Cc1ccc2nc(COc3ccc(Cl)cc3)cc(=O)n2c1
nt | -1% | 0.0% | -21% | CC(=O)c1ccc(S(=O)(=O)N(C)CC(=O)NCC2CCCCC2)cc1
0 | -3% | 0.1% | -3% | Cc1cc(C)cc(-n2ccnc2SCC(=O)Nc2ccc3c(c2)OCCO3)c1
nt | -9% | -0.5% | 11% | CCN(CC)S(=O)(=O)c1cc(NC(=O)c2cc([N+](=O)[O-])ccc2N2CCOCC2)ccc1C
nt | 1% | 2.3% | 3% | CSc1nccc(NC(=O)c2cccc(Br)c2)n1
5 | 1% | -0.7% | -23% | O=C(NCCCN1CCOCC1)c1cc(-c2ccc(F)cc2)on1
nt | -1% | -0.9% | -4% | Cc1cc(-c2nnc(SCC(=O)NC3CC3)n2C(C)C)cs1
nt | -7% | -1.7% | nt | O=C1NC(=S)NC1(c1ccccc1)c1ccccc1
nt | 28% | -4.4% | 2% | COc1ccc(CCNC(=O)C2=CCN(S(=O)(=O)c3ccc(F)cc3)CC2)cc1OC
nt | -5% | -0.9% | nt | COc1ccc(C(=O)OCC(=O)Nc2ccc(N3CCOCC3)cc2)cc1OC
nt | -4% | 0.7% | nt | O=C1c2ccccc2-c2c1c1ccccc1c(=O)n2-c1ccccc1
8 | ? | ? | 0% | CCOC(=O)N1CCN(C(=O)c2cccn3c(=O)c4cc(Cl)ccc4nc23)CC1
nt | 31% | -1.9% | -23% | Cc1cccc2c(=O)c(C(=O)NCCc3ccccc3)c[nH]c12
-3 | 17% | -0.7% | -3% | CCn1c(NC(=O)c2ccc(COc3ccc(C)cc3[N+](=O)[O-])o2)nc2ccccc21
-2 | 0% | -0.1% | 0% | CCN(CC)CP(=O)(c1ccccc1)c1ccccc1
nt | -16% | 1.7% | nt | N#Cc1ccc(C23OCCN2CCn2c3c3ccccc3[n+]2[O-])cc1 (stereo unspecified)
nt | -2% | 0.6% | 0% | COc1ccc(Cl)cc1S(=O)(=O)N(C)CC(=O)N1CCCC1
nt | 10% | 0.5% | nt | COc1ccccc1OCc1ccc(C(=O)Nc2ccccc2)cc1
nt | -4% | 0.0% | -1% | CC(=O)NC(Cc1ccc(C)cc1)C(=O)NC1CCN(S(=O)(=O)c2ccccc2)CC1 (stereo unspecified)
nt | -15% | 0.7% | nt | O=C(Nc1ccc(OC(F)(F)F)cc1)c1ccccc1-n1cnnn1
nt | ? | -1.3% | nt | CC1(c2ccccc2Br)NC(=O)N(CC(=O)NC2CCCCC2)C1=O (stereo unspecified)
12 | 13% | -1.5% | -36% | CCCOc1ccc(-c2nnc(-c3ccncc3)o2)cc1
nt | 0% | 0.7% | 0% | CC(CC(=O)N(C)C1CCCCC1)S(=O)(=O)c1ccc2c(c1)NC(=O)CO2 (stereo unspecified)
-20 | 2% | ? | 3% | O=C(NCC1CC1)c1ccc2c3n(nc2c1)-c1ccccc1CO3
1 | 9% | 1.1% | 1% | O=S(=O)(Nc1cccnc1)c1cccc(C(F)(F)F)c1
nt | 7% | 2.8% | -13% | CC(C)Oc1ccc(C(=O)NCCCNC(=O)c2cccnc2)cc1
-4 | -1% | -3.4% | -13% | Cn1c(SC/C=C/c2ccccc2)nnc1-c1ccco1
-9 | 2% | -1.8% | -10% | O=C1OCCC1Sc1nc2cc(Cl)ccc2n1Cc1ccccc1 (stereo unspecified)
-3 | -11% | -4.0% | 12% | Cc1ccc(CNC(=O)C23CN(Cc4ccccc4)CC2C(c2ccc([N+](=O)[O-])cc2)=NO3)o1 (stereo unspecified)
-4 | 8% | 5.3% | -2% | Cc1cc(Cl)ccc1Oc1ncc(-c2ccc(Cl)cc2)cn1
-1 | 2% | -1.9% | 1% | CCCCn1c(SCC(=O)OC)nc2c1c(=O)n(C)c(=O)n2C
nt | 2% | 6.3% | 6% | OCCNc1nc(NCc2ccccc2)c2ccccc2n1
nt | ? | 0.8% | 0% | Cc1cc(C)n(C(=O)Cn2nc(C)c(Cl)c2C)n1
-5 | 1% | -1.6% | -2% | Cc1[nH]c2ccccc2c1SCC(=O)N1CCCCCC1
0 | -1% | 2.2% | 5% | COc1ccccc1NC(=O)C1CCCN(S(=O)(=O)c2cnc[nH]2)C1 (stereo unspecified)
-6 | 2% | -1.7% | -12% | CS(=O)(=O)N1CCN(c2ccc(Cl)cc2[N+](=O)[O-])CC1
1 | -19% | 0.7% | -12% | C=C(C)CSc1nc2c(c(=O)[nH]c(=O)n2C)n1Cc1ccccc1
1 | 0% | ? | -4% | CCOC(=O)c1c(NC(=O)/C=C/c2ccco2)sc(C)c1C
nt | 11% | 4.0% | -2% | CCOc1ccc(OCCC(=O)OCC(=O)NCc2ccccc2)cc1
0 | -10% | 2.7% | 4% | O=C(Nc1cccc(C(=O)N2CCN(c3ccc(F)cc3)CC2)c1)c1ccccc1
0 | 1% | 0.1% | 3% | Cc1[nH]n(-c2ccccc2)c(=O)c1N=Nc1ccccc1C(=O)N1CCCCC1
6 | 32% | 8.2% | -5% | CCNC(=S)N1C2CCC1CC(NC(=O)NC1CCCCC1)C2 (stereo unspecified)
-2 | -11% | 4.3% | -1% | O=C(c1cccs1)n1nc(-c2ccccc2)nc1NCc1ccc(F)cc1
-15 | -17% | ? | 0% | Cc1ccc(/C=c2\sc3n(c2=O)CN(c2ccc(Br)cc2)CN=3)o1
1&-7&-5 | -1%&-1% | 4.4%&1.6% | -28%&-27% | C[C@]12CCC(=O)C=C1CC[C@@H]1[C@@H]2[C@@H](O)C[C@@]2(C)[C@H]1CC[C@]2(O)C(=O)COC(=O)CCC(=O)O
8 | -2% | -1.8% | -4% | CCC(CC)NC(=O)CSc1nnc(-c2ccc(OC)cc2)n1C(C)C
4 | -9% | 2.8% | -4% | CC(C)(C)C(=O)O/N=C(\N)c1ccc(Br)cc1
5 | -17% | -0.2% | 1% | CC(=O)Nc1ccc(S(=O)(=O)NNC(=O)COc2cc(C)ccc2C(C)C)cc1
-3 | 52% | 3.2% | -8% | O=C1c2cccc(Sc3ccccc3)c2C(=O)c2c(Sc3ccccc3)cccc21
-10 | 10% | -6.4% | -20% | CCOC(=O)c1ccc2nc(C)c(C)nc2c1
nt | -2% | -0.1% | nt | O=C(NCC(=O)N1CCCC(C(F)(F)F)C1)c1ccccc1Br (stereo unspecified)
-17 | -1% | -2.1% | -51% | Clc1cnc(N/N=C/c2cccs2)c(Cl)c1
nt | -8% | 5.1% | nt | CC(O)[C@H]1CC[C@H]2[C@@H]3CC[C@H]4C[C@@H](O)CC[C@]4(C)[C@H]3C(=O)C[C@]12C (stereo partly specified)
-6 | 11% | -2.8% | -46% | c1ccc(OCCSc2nnnn2C2CCCCC2)cc1

Later entries
GLA inh pH 4.5 | Rango release inh | Rango-impB inh | miR-21 FLuc | SMILES
0 | -10% | 0.0% | -2% | O=C(O)C(Cc1ccccc1)NS(=O)(=O)c1ccc2c(c1)OCCO2 (stereo unspecified)
-15 | nt | nt | -6% | Cc1noc(C)c1CSc1ncnc2sc3c(c12)CCC(C)C3 (stereo unspecified)
-2 | -11% | -5.8% | -24% | COc1ccc(/C=C/C(=O)c2cc(Cl)ccc2O)c(OC)c1
1 | -16% | -0.2% | -3% | CC(=O)Nc1ccc(C(=O)NNC(=O)c2cc([N+](=O)[O-])cc([N+](=O)[O-])c2)cc1
nt | -2% | 2.5% | nt | O=C1CC(c2ccc(O)cc2)Oc2cc(O)ccc21 (stereo unspecified)
2 | -18% | ? | -9% | O=c1[nH]cc(O)c(=O)[nH]1
-5 | -20% | ? | -3% | CC(=O)Nc1ccc(C(=O)CSc2cc(C)c3cccc(C)c3n2)cc1
-5 | 6% | -2.5% | -1% | Oc1ccc(/C=N/n2cc(-c3ccccc3)[nH]c2=S)cc1
2 | 0% | -1.1% | -4% | Cc1sc2ncnc(OCC(=O)NC3CCS(=O)(=O)C3)c2c1C (stereo unspecified)
nt | -6% | 1.6% | ? | COc1ccc(/C(N)=N/OC(=O)c2c(-c3ccccc3Cl)noc2C)cc1OC
nt | 22% | -0.4% | nt | Cc1noc(C)c1COc1ccccc1C(=O)N(C)Cc1ccco1
-15 | 16% | 2.5% | 0% | OCc1cn(-c2ccccc2)nn1
nt | 0% | -1.6% | 1% | O=S(=O)(Nc1ccccc1N1CCOCC1)c1ccc(F)c(Cl)c1
7 | 2% | 1.3% | -5% | O=C(COC(=O)C12CC3CC(CC(C3)C1)C2)Nc1ccc([N+](=O)[O-])cc1Cl
nt | -13% | -2.7% | -1% | CCOc1cccc(/C=N/NC(=O)C2CCCC2)c1O
0 | ? | 0.3% | -45% | CCOc1ccc(NC(=O)Cn2nnc(C(=O)NCc3ccco3)c2N)cc1
nt | 0% | -1.4% | -3% | O=C(NCc1ccc(F)c(F)c1)C1CCC(=O)N(CCc2ccccc2)C1 (stereo unspecified)
nt | -9% | -2.9% | 0% | COc1ccc(OCc2nnc(SCC(=O)NC3CCCCC3)o2)cc1
nt | ? | ? | nt | C1=C(c2ccccc2)Nc2ncnn2C1c1ccccc1 (stereo unspecified)
-6 | 28% | 0.5% | -1% | CCC(=O)N1c2ccc(S(=O)(=O)CCC(=O)NC3CCCC3)cc2CC1C (stereo unspecified)
2 | 3% | 0.7% | 1% | Cc1ccccc1S(=O)(=O)NC1=NCCCCC1
4 | -5% | -0.2% | -1% | O=C(CCC(=O)N(CC(=O)NC1CCCCC1)Cc1cccs1)Nc1ccccn1
nt | 9% | 0.4% | nt | COc1cc(OC)cc(-c2nnc(NC(=O)CCS(=O)(=O)c3ccccc3)o2)c1
-3 | -19% | -15% | 9% | CCC(C)C(=O)Nc1nc(C)c(-c2csc(Nc3cc(OC)ccc3OC)n2)s1 (stereo unspecified)
1 | -13% | -1.5% | -14% | COC(=O)c1c(NC(=O)COC(=O)Cn2cnc3ccccc32)sc2c1CCCC2
nt | -13% | 4.4% | nt | CN1N=C(C(=O)N=c2sc3ccccc3n2C)CCC1=O
-5 | 1% | -0.3% | 0% | O=C(O)Cc1ccc(-c2ccccc2-c2ccccc2)cc1
nt | ? | ? | -5% | COc1ccc(-c2cn3nc(SCC(=O)NCC4CCCO4)ccc3n2)cc1 (stereo unspecified)
nt | -8% | 0.9% | nt | Nc1c(Br)cc2c(c1Br)C(O)c1ccccc1-2 (stereo unspecified)
3 | -7% | 0.2% | -3% | Cc1ccc(NC2OC(CO)C(O)C(O)C2O)cc1 (stereo unspecified)

Compounds shown so far with an aryl methoxy group (twelve):
GLA inh pH 4.5 | Rango release inh | Rango-impB inh | miR-21 FLuc | SMILES
nt | 28% | -4.4% | 2% | COc1ccc(CCNC(=O)C2=CCN(S(=O)(=O)c3ccc(F)cc3)CC2)cc1OC
nt | -5% | -0.9% | nt | COc1ccc(C(=O)OCC(=O)Nc2ccc(N3CCOCC3)cc2)cc1OC
nt | -2% | 0.6% | 0% | COc1ccc(Cl)cc1S(=O)(=O)N(C)CC(=O)N1CCCC1
nt | 10% | 0.5% | nt | COc1ccccc1OCc1ccc(C(=O)Nc2ccccc2)cc1
0 | -1% | 2.2% | 5% | COc1ccccc1NC(=O)C1CCCN(S(=O)(=O)c2cnc[nH]2)C1 (stereo unspecified)
8 | -2% | -1.8% | -4% | CCC(CC)NC(=O)CSc1nnc(-c2ccc(OC)cc2)n1C(C)C
-2 | -11% | -5.8% | -24% | COc1ccc(/C=C/C(=O)c2cc(Cl)ccc2O)c(OC)c1
nt | -6% | 1.6% | ? | COc1ccc(/C(N)=N/OC(=O)c2c(-c3ccccc3Cl)noc2C)cc1OC
nt | -9% | -2.9% | 0% | COc1ccc(OCc2nnc(SCC(=O)NC3CCCCC3)o2)cc1
nt | 9% | 0.4% | nt | COc1cc(OC)cc(-c2nnc(NC(=O)CCS(=O)(=O)c3ccccc3)o2)c1
-3 | -19% | -15% | 9% | CCC(C)C(=O)Nc1nc(C)c(-c2csc(Nc3cc(OC)ccc3OC)n2)s1 (stereo unspecified)
nt | ? | ? | -5% | COc1ccc(-c2cn3nc(SCC(=O)NCC4CCCO4)ccc3n2)cc1 (stereo unspecified)

Some of the compounds tested; the hit share may differ from the screen's.
